Screening results: PubChem, Broad Institute
Vaccinia inh – blocks a specific stage of Vaccinia orthopoxvirus infection, primary screen, cell-based, single point; actives 0.01% (n = 89,000); Vaccinia-infected cells, mCherry/Venus stage reporter fluorescence; hits give low values; some inactives read as strong as hits; activity change (mCherry), % (no concentration beside the values); AID 1053133, 2014;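 active means mCherry past -33% and 40 or more points under the early reporter, replicates agreeing; inconclusive means past -33% without that gap or agreement; tested in A549 cells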;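 further: scaled between vehicle wells and reference inhibitor wells; 23 nL library stock went into each well; one replicate is shown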
Vaccinia inh Venus – second read-out of Vaccinia inh, no call of its own (marks repeat the call); activity change (Venus), %; measured here: Venus reporter, other viral stage;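 negative = less Venus signal; first of two replicates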
Numbers without * were called inactive; ? = inconclusive; . = no result given; & = joins results of further samples.

Each structure is followed by: Vaccinia inh Venus, Vaccinia inh
- CC(C)CC#Cc1ccc([C@@H]2[C@H](CO)N3C(=O)CN(C(=O)c4ccc5c(c4)OCO5)C[C@@H]23)cc1
    ., ?
- C[C@@H]1CCCCO[C@H](CN(C)C(=O)NC2CCCCC2)[C@H](C)CN([C@H](C)CO)C(=O)c2cc(NS(=O)(=O)c3ccc(F)cc3)ccc2O1
    ., ?
- O=C(C[C@@H]1C[C@H]2c3cc(NC(=O)C4CCC4)ccc3O[C@H]2[C@H](CO)O1)NCc1cc(F)ccc1F
    2, -1
- COC(=O)C[C@H]1C[C@H]2c3cc(NC(=O)CN(C)C)ccc3O[C@H]2[C@@H](CO)O1
    5, -7
- C[C@H]1CN([C@@H](C)CO)C(=O)c2cc(NC(=O)Cc3cn(C)c4ccccc34)ccc2O[C@H]1CN(C)Cc1ccc(C(=O)O)cc1
    1, 10
- O=C1O[C@H](c2ccccc2)[C@H](c2ccccc2)N2[C@H]1[C@@H](C(=O)N1CCN(c3ncccn3)CC1)[C@]1(C(=O)Nc3ccc(C#CC4(O)CCCCCC4)cc31)[C@H]2c1ccc(OCCO)cc1
    7, 0
- COc1ccc(CNC(=O)C[C@H]2CC[C@@H]3[C@@H](COc4ccc(NC(C)=O)cc4C(=O)N3C)O2)cc1
    8, 10
- COc1ccc(-c2cn(CC[C@@H]3CC[C@H](NC(=O)c4cnccn4)[C@@H](CO)O3)nn2)cc1
    12, 15
- CCC(=O)NC[C@H]1[C@H](c2ccc(-c3ccccc3)cc2)[C@@H](CO)N1C(=O)C1CC1
    -4, -5
- COc1ccc(NC(=O)N2C[C@H]3[C@@H](c4ccccc42)[C@@H](CO)N3Cc2ccccn2)cc1
    17, 10
- C[C@H](CO)N1C[C@H](C)[C@H](CN(C)Cc2ccc3c(c2)OCO3)Oc2ccc(NC(=O)CCN3CCOCC3)cc2C1=O
    1, -7
- C/C=C/c1ccc2c(c1)O[C@H](CN(C)C(=O)c1ccccc1)[C@@H](C)CN([C@@H](C)CO)S2(=O)=O
    -17, -27
- COCC#Cc1ccc2c(c1)O[C@H](CN(C)C(=O)C1CCC1)[C@@H](C)CN([C@@H](C)CO)S2(=O)=O
    3, 2
- CC(C)NC(=O)N(C)C[C@@H]1Oc2ccc(NS(C)(=O)=O)cc2CC(=O)N([C@H](C)CO)C[C@H]1C
    1, 3
- C/C=C/c1cnc2c(c1)C(=O)N([C@H](C)CO)C[C@H](C)[C@H](CN(C)S(=O)(=O)c1ccc(OC)cc1)O2
    4, 19
- COc1cccc(-c2ccc([C@H]3[C@@H](CO)N4C(=O)CN(C(=O)C5CCCCC5)C[C@@H]34)cc2)c1
    -15, -19
- C/C=C/c1ccc([C@@H]2[C@H](CO)N(CC3CCOCC3)C23CN(S(=O)(=O)CC)C3)cc1
    15, 11
- C[C@H]1CCCCO[C@@H](CN(C)C(=O)Nc2ccc(C(F)(F)F)cc2)[C@@H](C)CN([C@@H](C)CO)C(=O)c2cc(NC(=O)Nc3ccc(F)cc3)ccc2O1
    -2, -13
- O=C(c1cnccn1)N1CC(=O)N2[C@@H](CO)[C@H](c3ccc(C#CC4CC4)cc3)[C@@H]2C1
    6, 8
- O=C(C[C@@H]1CC[C@@H](NS(=O)(=O)c2ccccc2)[C@@H](CO)O1)NCc1ccc(Cl)c(Cl)c1
    1, -2
- C[C@@H]1CN([C@H](C)CO)C(=O)Cc2cc(NC(=O)Cc3ccccc3)ccc2O[C@@H]1CN(C)C
    11, 7
- COc1ccc(NC(=O)Nc2ccc3c(c2)C(=O)N([C@H](C)CO)C[C@H](C)[C@H](CN(C)CC2CCCCC2)OCCCC[C@H](C)O3)cc1
    ., ?
- CO[C@@H]1CN(C)C(=O)c2cc(NC(C)=O)ccc2OC[C@H](C)N(Cc2ccncc2)C[C@@H]1C
    0, 4
- COc1ccccc1CN1C[C@@H]2N[C@H](C1)C2c1ccc(/C=C/c2ccccc2)cc1 (some centres undefined)
    ., ?
- O=C(C[C@@H]1CC[C@@H]2[C@H](COC[C@H](O)CN2C(=O)c2ccccc2)O1)NCc1ccc(-c2ccccc2)cc1
    -13, -26
- C[C@@H]1CN([C@@H](C)CO)C(=O)c2cc(NS(C)(=O)=O)ccc2O[C@H]1CN(C)Cc1ccc(C(=O)Nc2ccccc2N)cc1
    17, 17
- C[C@@H]1CN([C@H](C)CO)C(=O)c2cc(NC(=O)Nc3ccc4c(c3)OCO4)ccc2O[C@@H](C)CCCCO[C@@H]1CN(C)Cc1ccc(Cl)c(Cl)c1
    -13, -23
- COCC(=O)N(C)C[C@@H]1Oc2ncc(C#C[C@H](C)O)cc2C(=O)N([C@@H](C)CO)C[C@H]1C
    14, 14
- O=C(NCC[C@@H]1CC[C@@H](NS(=O)(=O)Cc2ccccc2)[C@H](CO)O1)C1CCOCC1
    -12, -5
- CCCNC(=O)C[C@@H]1CC[C@@H]2[C@H](COc3ccc(NC(=O)Nc4c(C)noc4C)cc3C(=O)N2C)O1
    7, -6

A second format for part of the listing above:
SMILES | Vaccinia inh Venus | Vaccinia inh
CO[C@@H]1CN(C)C(=O)c2cc(NC(C)=O)ccc2OC[C@H](C)N(Cc2ccncc2)C[C@@H]1C | 0 | 4
O=C(c1cnccn1)N1CC(=O)N2[C@@H](CO)[C@H](c3ccc(C#CC4CC4)cc3)[C@@H]2C1 | 6 | 8
COc1ccccc1CN1C[C@@H]2N[C@H](C1)C2c1ccc(/C=C/c2ccccc2)cc1 (some centres undefined) | . | ?
C[C@H]1CCCCO[C@@H](CN(C)C(=O)Nc2ccc(C(F)(F)F)cc2)[C@@H](C)CN([C@@H](C)CO)C(=O)c2cc(NC(=O)Nc3ccc(F)cc3)ccc2O1 | -2 | -13
C[C@@H]1CN([C@H](C)CO)C(=O)c2cc(NC(=O)Nc3ccc4c(c3)OCO4)ccc2O[C@@H](C)CCCCO[C@@H]1CN(C)Cc1ccc(Cl)c(Cl)c1 | -13 | -23

Carrying on:
Each structure is followed by: Vaccinia inh Venus, Vaccinia inh
- C/C=C/c1ccc([C@H]2[C@@H](CO)N(CC3CCCC3)C23CN(S(=O)(=O)CC)C3)cc1
    -9, -18
- COc1ccccc1-c1cnc2c(c1)C(=O)N([C@@H](C)CO)C[C@H](C)[C@H](CN(C)Cc1ccncc1)O2
    -3, 7
- O=C(N[C@H]1CC[C@@H](CCn2cc(C3CCCCC3)nn2)O[C@@H]1CO)c1cccnc1
    10, 5
- C[C@@H]1CN([C@H](C)CO)S(=O)(=O)c2ccc(-c3ccc(C(=O)N(C)C)cc3)cc2O[C@@H]1CN(C)Cc1ccc2c(c1)OCO2
    -27, -16
- COCC(=O)N1CC(=O)N2[C@@H](CO)[C@H](c3ccc(C#Cc4cccnc4)cc3)[C@@H]2C1
    -3, -3
- Cc1noc(C)c1S(=O)(=O)Nc1ccc2c(c1)C(=O)N([C@@H](C)CO)C[C@H](C)[C@H](CN(C)Cc1ccncc1)OCCCC[C@H](C)O2
    -5, 10
- CC(C)NC(=O)Nc1ccc2c(c1)C(=O)N([C@H](C)CO)C[C@@H](C)[C@@H](CN(C)C(=O)NC1CCCCC1)O2
    10, 4
- O=C(Nc1ccc(Cl)cc1)N[C@H]1CC[C@H](CCNS(=O)(=O)c2ccccc2F)O[C@H]1CO
    -10, -16
- O=C(NCC[C@@H]1CC[C@H](NC(=O)c2cnccn2)[C@@H](CO)O1)c1ccc2c(c1)OCO2
    6, 1
- O=C(Nc1ccc(C(F)(F)F)cc1)N[C@H]1C=C[C@H](CC(=O)N2CCCCC2)O[C@@H]1CO
    -4, 5
- Cc1noc(C)c1NC(=O)Nc1ccc2c(c1)CC(=O)N([C@@H](C)CO)C[C@H](C)[C@@H](CN(C)S(=O)(=O)c1cccs1)O2
    7, 13
- CC(C)N1C(=O)[C@@]2(Cc3ccccc31)c1ccccc1C(=O)N(C1CCCCC1)[C@H]2c1ccc(CO)cc1
    6, 5
- CN1CCN(C(=O)C[C@@H]2CC[C@@H]3[C@H](COC[C@H](O)CN3Cc3ccc4c(c3)OCO4)O2)CC1
    4, 11
- COc1ccc(S(=O)(=O)N(C)C[C@H]2Oc3ccc(NC(=O)Nc4ccc(C(F)(F)F)cc4)cc3CC(=O)N([C@@H](C)CO)C[C@H]2C)cc1
    -14, -26
- C[C@H](CO)N1C[C@H](C)[C@@H](CN(C)Cc2ccc3c(c2)OCO3)Oc2ccc(NC(=O)Nc3ccc4c(c3)OCO4)cc2CC1=O
    -18, -25
- C[C@H](CO)N1C[C@H](C)[C@@H](CN(C)Cc2ccccn2)Oc2ncc(C#Cc3ccc(F)cc3)cc2C1=O
    -19, -27
- CO[C@H]1CN(C)C(=O)c2cc(NC(=O)Nc3c(C)noc3C)ccc2OC[C@@H](C)NC[C@@H]1C
    11, 20
- CO[C@@H]1CN(C)C(=O)c2ccc(NC(=O)C3CCOCC3)cc2OC[C@@H](C)NC[C@H]1C
    4, 15
- C[C@H]1CCCCO[C@@H](CN(C)C(=O)Nc2ccccc2)[C@@H](C)CN([C@@H](C)CO)C(=O)c2cc(NS(=O)(=O)c3ccc(Cl)cc3)ccc2O1
    -14, -20
- COC(=O)C[C@H]1CC[C@H]2[C@@H](COC[C@@H](O)CN2S(=O)(=O)c2cn(C)cn2)O1
    -2, 8
- O=C(NCC[C@@H]1CC[C@H](NC(=O)C2CC2)[C@@H](CO)O1)c1cc(Cl)cc(Cl)c1
    4, 2
- Cc1ccc(S(=O)(=O)N(C)C[C@@H]2Oc3cc(C4=CCCC4)ccc3S(=O)(=O)N([C@@H](C)CO)C[C@H]2C)cc1
    -10, -19
- C[C@H](CO)N1C[C@H](C)[C@H](CN(C)Cc2ccccn2)Oc2cc(C3=CCCCC3)ccc2S1(=O)=O
    ., ?
- C[C@H](CO)N1C[C@H](C)[C@H](CN(C)C(=O)Nc2ccc(F)cc2)Oc2c(NC(=O)c3cnccn3)cccc2C1=O
    -1, 12
- COc1ccc(-c2cn(CC[C@H]3CC[C@H](NC(=O)Nc4ccc(F)cc4)[C@@H](CO)O3)nn2)cc1
    -1, 11
- C[C@@H]1CN([C@@H](C)CO)C(=O)CCCn2nncc2CO[C@H]1CN(C)Cc1cccc(O)c1
    -3&12, 2&11
- COc1ccc(CNC(=O)C[C@@H]2C[C@@H]3c4cc(NS(=O)(=O)c5ccc(F)cc5)ccc4O[C@@H]3[C@H](CO)O2)cc1
    0, -2
- C[C@@H]1CCCCO[C@H](CN(C)S(=O)(=O)c2ccc(Cl)cc2)[C@@H](C)CN([C@@H](C)CO)C(=O)c2cc(NC(=O)NC3CCCCC3)ccc2O1
    -3, -15
- COc1cccc(-c2ccc(CC[C@H]3O[C@H]4CC[C@H](CO)O[C@H]4C[C@@H]3NC(=O)c3cnccn3)cc2)c1
    -9, -17
- COc1ccc(S(=O)(=O)N(C)C[C@@H]2Oc3ccc(NC(=O)CCC(F)(F)F)cc3C(=O)N([C@H](C)CO)C[C@H]2C)cc1
    7, 18

Quoted at random: two entries already listed
Each structure is followed by: Vaccinia inh Venus, Vaccinia inh
- COc1ccc(S(=O)(=O)N(C)C[C@@H]2Oc3ccc(NC(=O)CCC(F)(F)F)cc3C(=O)N([C@H](C)CO)C[C@H]2C)cc1
    7, 18
- C[C@H](CO)N1C[C@H](C)[C@H](CN(C)Cc2ccccn2)Oc2cc(C3=CCCCC3)ccc2S1(=O)=O
    ., ?

Following part:
Each structure is followed by: Vaccinia inh Venus, Vaccinia inh
- C[C@@H]1CN([C@H](C)CO)C(=O)CCCn2nncc2CO[C@H]1CN(C)C(=O)Nc1ccnc(N2CCOCC2)c1
    -5, -1
- O=C(C[C@@H]1CC[C@@H](NC(=O)c2ccc3c(c2)OCO3)[C@@H](CO)O1)NC1Cc2ccccc2C1
    7, 2
- Cc1noc(C)c1NC(=O)N(C)C[C@@H]1OCCCC[C@H](C)Oc2ccc(NC(=O)c3ccncc3)cc2C(=O)N([C@@H](C)CO)C[C@@H]1C
    7, 24
- CO[C@H]1CN(C)C(=O)c2ccc(NC(=O)c3ccc(F)cc3)cc2OC[C@@H](C)N(C(C)=O)C[C@H]1C
    -3, 0
- COc1ccc2c3c(n(C)c2c1)[C@H](CO)N(Cc1cccc(Cl)c1)CC31CCN(C(=O)C2CC2)CC1
    -1, 3
- O=C(C[C@@H]1C=C[C@@H](NC(=O)c2ccncc2)[C@@H](CO)O1)Nc1ccccc1
    13, 16
- COCC#Cc1ccc2c(c1)O[C@H](CN(C)C(=O)c1ccccc1F)[C@H](C)CN([C@H](C)CO)S2(=O)=O
    -3, -1
- C[C@@H]1CN([C@@H](C)CO)C(=O)c2ccccc2-c2ccccc2CO[C@H]1CN(C)C(=O)c1cc(Cl)cc(Cl)c1
    -2, -2
- C[C@@H]1CCCCO[C@@H](CN(C)S(=O)(=O)c2cccs2)[C@@H](C)CN([C@@H](C)CO)C(=O)c2cc(NS(C)(=O)=O)ccc2O1
    6, 20
- CC(C)NC(=O)N(C)C[C@H]1Oc2ccc(NC(=O)CCN3CCOCC3)cc2CC(=O)N([C@H](C)CO)C[C@@H]1C
    0, 0
- O=C(C[C@H]1CC[C@H](NC(=O)CCN2CCCCC2)[C@@H](CO)O1)Nc1ccccc1
    16, 8
- C[C@H](CO)N1C[C@H](C)[C@@H](CN(C)Cc2ccc(O)cc2)OCc2ccccc2-c2c(n(C)c3ccccc23)C1=O
    -7, -15
- COCCNC(=O)C[C@H]1CC[C@H]2[C@H](COc3ccc(NC(=O)Cc4ccccc4)cc3C(=O)N2C)O1
    0, -6
- O=C(C[C@H]1CC[C@@H]2[C@H](COC[C@H](O)CN2Cc2ccncc2)O1)NCC1CC1
    4, 8
- Cc1ccc(S(=O)(=O)Nc2ccc3c(c2)C(=O)N([C@@H](C)CO)C[C@@H](C)[C@H](CN(C)C)OCCCC[C@H](C)O3)cc1
    0, 0
- CNC[C@H]1Oc2c(NC(=O)Nc3c(C)noc3C)cccc2C(=O)N([C@H](C)CO)C[C@H]1C
    9, 9
- C[C@@H]1CCCCO[C@@H](CN(C)C(=O)Cc2ccccc2)[C@@H](C)CN([C@H](C)CO)C(=O)c2cc(NS(C)(=O)=O)ccc2O1
    -4, 2
- O=C(Cc1ccccn1)N[C@@H]1CC[C@@H](CCn2cc(-c3cccnc3)nn2)O[C@@H]1CO
    2, 1

Some of the compounds tested; count on the stated rates, not on these rows.
